rRNA inh HTS: inhibitors of bacterial rRNA selective over humanized ribosomes; E. coli WT GFP vs humanized-ribosome RFP mutants, fluorescence, 24 h; active compounds read low; DMSO median 0, no signal -100; 350,000 compounds, 1.6% hits; AID 720706; GFP signal change (wild-type ribosome), % (no concentration beside the values);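 active = significant combined selectivity score with lowered wild-type GFP, culture density cut under 30%, mutant RFP and density less affected; inactive = any of these conditions unmet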; also: one replicate is shown; some compounds called inactive have numbers as strong as hits
Ecoli growth: inhibitors of Escherichia coli growth; OD600, 23 h; active compounds read low; OD600 absorbance (test concentration not listed); 330,000 compounds, 0.21% hits; AID 1053175;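 active = OD600 absorbance below the run mean of sample wells minus 3.6 SD, in any replicate, cut at about 0.56 in these data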;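 also: stock transfer was 300 nL into about 60 µL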
FGF22 binding: shifts melting point of recombinant human FGF22. Q9HCT0. recombinant FGF22 thermal shift, SYPRO orange fluorescence; percent of sucrose octasulfate shift, DMSO zero. calls only at 9.99 µM. 340,000 compounds, 1.5% hits;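 active = melting point raised past a set limit in the mean and every replicate; inconclusive = no clear call; three in four hits are not shown here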
Target sequence (Q9HCT0 whole entry, looked up): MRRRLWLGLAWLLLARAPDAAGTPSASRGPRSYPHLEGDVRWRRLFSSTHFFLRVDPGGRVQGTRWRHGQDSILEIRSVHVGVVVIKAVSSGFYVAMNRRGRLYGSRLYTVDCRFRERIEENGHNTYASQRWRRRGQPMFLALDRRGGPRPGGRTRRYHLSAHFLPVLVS
HNF4A DNA FP: change in binding of human HNF4 alpha to DNA | P41235 | HNF4a-FITC DNA binding, fluorescence polarization, 1 h | activity change, % at 10 µM | 360,000 compounds, 0.3% hits; in the data active = activity change above about 30%, passing the limit was not always enough;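 also: controls were the assay level and a saturating level of protein; the project sought stronger binding though the title names inhibitors; some compounds called inactive have numbers as strong as hits; positive values seem to mean higher polarization but the record does not say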
ALR H2O2 inh: inhibitors of human sulfhydryl oxidase ALR; P55789; 290,000 compounds, 3.8% hits; inhibition, % (concentration not given with the values); AID 485317; purified ALR, DTT oxidation, H2O2 HRP-luminol luminescence;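 active = mean and each replicate at 75% or more; inconclusive = only one of the two met; inactive = neither met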;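 also: stock transfer was 7.5 nL into about 7.5 µL; 0% = neutral wells and 100% = wells with inactivated enzyme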
Target sequence (P55789 whole entry, looked up): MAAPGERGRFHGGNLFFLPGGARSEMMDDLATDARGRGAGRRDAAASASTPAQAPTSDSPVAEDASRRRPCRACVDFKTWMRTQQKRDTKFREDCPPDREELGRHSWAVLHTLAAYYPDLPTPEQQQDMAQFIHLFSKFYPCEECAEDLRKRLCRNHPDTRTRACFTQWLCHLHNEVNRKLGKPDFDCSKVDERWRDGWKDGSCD
AF4-AF9 inh: blocks AF4 peptide binding to human AF9. inhibition, % at 10 µM. 350,000 compounds, 0.47% hits. AID 651704. AlphaScreen, biotin-AF4 peptide binding to FLAG-AF9. P42568;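 active = every replicate reaching a set inhibition limit, whatever the replicate mean, cut at about 25% in these data; inconclusive = mean inhibition reaches that limit but some replicates miss it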;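 also: 0% = plate neutral control median and 100% = total signal loss; the record names both 10 and 1 µM as test concentration; the first replicate is given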
Target sequence (P42568 whole entry, looked up): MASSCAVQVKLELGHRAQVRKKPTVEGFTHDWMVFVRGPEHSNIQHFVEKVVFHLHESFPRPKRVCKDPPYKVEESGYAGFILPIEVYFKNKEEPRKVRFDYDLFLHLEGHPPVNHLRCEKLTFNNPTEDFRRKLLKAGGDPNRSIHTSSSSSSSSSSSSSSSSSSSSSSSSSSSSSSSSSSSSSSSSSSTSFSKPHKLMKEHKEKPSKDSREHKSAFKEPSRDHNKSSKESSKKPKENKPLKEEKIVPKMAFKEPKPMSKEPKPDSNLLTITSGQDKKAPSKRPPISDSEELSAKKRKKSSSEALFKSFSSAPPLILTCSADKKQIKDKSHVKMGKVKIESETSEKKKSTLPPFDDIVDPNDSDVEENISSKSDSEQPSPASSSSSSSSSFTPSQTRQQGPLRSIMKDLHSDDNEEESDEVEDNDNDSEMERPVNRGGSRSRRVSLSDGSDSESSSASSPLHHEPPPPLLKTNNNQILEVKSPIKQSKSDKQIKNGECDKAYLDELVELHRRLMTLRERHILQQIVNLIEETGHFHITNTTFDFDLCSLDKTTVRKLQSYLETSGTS
Vif A3G: HIV-1 Vif–A3G interaction blockers – biochemical, TR-FRET, GST-Vif 1-94, biotin-A3G peptide, dose response retest, primary screen (AID 1117319) | inhibition, %, or IC50 in µM where a hit was titrated | TR-FRET GST-Vif / biotin-A3G peptide binding; higher % means a stronger effect; test concentration not given here; strong numbers were not always called active | 260,000 compounds, 0.57% hits;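 active = above the screen mean plus three standard deviations and confirmed in dose response; inconclusive = results disagree or hit not tested in dose response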;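 also: Vif residues 1-94 fused to GST binding biotinylated APOBEC3G peptide 110-148; 0% = full assay without inhibitor and 100% = GST in place of GST-Vif; retest series ran down from 100 µM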
rRNA inh HTS OD600: further read-out of rRNA inh HTS, marked with its call; OD600 change, %; measured here: OD600 growth;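 optical density of the mix in the first replicate; 0 = DMSO median and -100 = no signal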
rRNA inh HTS RFP: second read-out of rRNA inh HTS, no call of its own (marks repeat the call); RFP signal change, %; measured here: RFP humanized mutant strains;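 first replicate; 0 = DMSO median and -100 = no signal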
The depositor's hits bear a star; i = inactive; ? = inconclusive; · = not tested or not shown; & = joins results of further samples. A portion of the library; count on the stated rates, not on these rows.

AF4-AF9 inh	rRNA inh HTS	HNF4A DNA FP	rRNA inh HTS OD600	FGF22 binding	Ecoli growth	ALR H2O2 inh	Vif A3G	rRNA inh HTS RFP	Structure
-2.2	5	·	6	i	·	·	·	-1.9	C[C@@H]1CN([C@H](C)CO)C(=O)c2cc(C#CC(C)(C)O)cnc2O[C@H]1CN(C)Cc1cncnc1
3.6	·	-2.8	·	i	·	·	?	·	CC1=NNC(=O)C1C(c1ccc(Cl)cc1)C(C#N)C#N (centres undefined)
-1.4	-5	1.9	-11	i	0.69	-6	0%	8.6	O=C(/C=C/c1ccccc1)OCC(=O)c1c[nH]c2ccccc12
-1.2	-25*	-0.9	-13*	i	0.69	-5	·	0.7*	O=C(NCCc1ccc(Cl)cc1)c1ccc2[nH]c(=O)c(=O)[nH]c2c1
·	·	-4.2	·	·	·	-1	-7%	·	COc1ccc(Nc2nc(N/N=C/c3ccc(N(C)C)cc3)nc(C)c2[N+](=O)[O-])cc1
-13	11	1.1	14	i	0.65	·	-4%	2.1	Fc1ccccc1CNCC1CCCO1 (centres undefined)
0.5	3	-1.8	5	i	·	-11	·	21	COc1ccc2ccccc2c1/C=N/Nc1cccc(C(=O)O)c1
-0.5	7	5.3	1	i	0.68	-1	-1%	-1.4	NS(=O)(=O)c1ccc(NC(=O)/C=C/c2cn(-c3ccccc3)nc2-c2cccc(Cl)c2)cc1
·	·	-0.1	·	·	0.68	-1	1%	·	CC(C)c1nnc(NC(=O)CN(C)S(=O)(=O)c2ccc3c(c2)OCCO3)s1
-2.2	-36	-1.1	-42	i	0.68	29	·	-25	COc1ccc(C(=O)NNC(=S)NC(=O)c2cccnc2)cc1
·	·	48*	·	·	0.73	1	-1%	·	CCOC(=O)c1cnc(-n2cc(C)cn2)nc1NCc1ccc2c(c1)OCO2
-1.7	19	-1.7	18	i	0.64	-15	1%	1.0	COc1cccc(CN2CCCC(C(=O)N3CCCCC3)C2)c1 (centres undefined)
2.0	·	-0.7	·	i	0.66	-2	-5%	·	CC1CCCCN1C(=O)COc1ccc(S(=O)(=O)N2CCCC2)cc1[N+](=O)[O-] (centres undefined)
0.2	9	-0.3	10	i	·	·	·	12	Nc1ccn([C@@H]2O[C@H](C(=O)N3CCN(c4ccc(Cl)cn4)CC3)[C@@H](O)[C@H]2O)c(=O)n1
2.6	-21*	-3.2	-15*	i	0.69	45	-10%	0.9*	CC(=O)c1c(C)[nH]c(C(=O)Nc2nc(C)cs2)c1C
·	·	0.9	·	·	0.71	-13	13%	·	O=C(CCc1ccc(S(=O)(=O)N2CCOCC2)cc1)Oc1ccccc1
?	7	-1.3	9	i	0.68	98*	·	-0.9	COc1ccc(S(=O)(=O)Nc2c(C(=O)O)[nH]c3ccc(OC)cc23)cc1
-3.4	3	·	4	i	·	·	·	-2.3	OC[C@@H]1[C@@H](c2ccc(-c3ccccc3F)cc2)[C@H]2CN(Cc3cncnc3)CCCCN12
7.8	-10	1.3	-8	i	0.68	98*	-5%	-0.1	CCN(CCNC(=O)C1=C(C)C(=O)OC12CCC(C)CC2)c1ccccc1 (centres undefined)
-1.0	0	·	2	i	·	·	·	-1.3	O=C(Cc1cccnc1)N[C@@H]1CC[C@H](CCn2cc(Cc3ccccc3)nn2)O[C@H]1CO
-9.2	-3	-2.9	-11	·	0.74	-19	-7%	-0.9	O=C(COc1ccc2ccccc2c1)N1CCN(C(=O)c2ccco2)CC1
·	·	0.2	·	·	0.72	-58	21%	·	CCCCc1ccc(NC(=O)COc2ccc(C(=O)Nc3ccccc3OCC)cc2)cc1
-1.5	11	-2.5	9	i	0.72	·	·	0.7	Cc1ccccc1NC(=O)Cc1nnc(NC(=O)Nc2ccccc2F)s1
0.5	27	-0.7	26	i	·	-2	0%	5.1	O=C(O)CCCNC(=O)/C(=C\c1ccccc1F)NC(=O)c1ccccc1
-2.3	0	·	-3	i	·	·	·	-1.4	COc1ccc(S(=O)(=O)N(C)C[C@H]2OCCCC[C@@H](C)Oc3ccc(NC(=O)Cc4ccccc4)cc3C(=O)N([C@@H](C)CO)C[C@@H]2C)cc1

Brought forward from above: 2 compounds; new compounds follow.
AF4-AF9 inh	rRNA inh HTS	HNF4A DNA FP	rRNA inh HTS OD600	FGF22 binding	Ecoli growth	ALR H2O2 inh	Vif A3G	rRNA inh HTS RFP	Structure
0.5	27	-0.7	26	i	·	-2	0%	5.1	O=C(O)CCCNC(=O)/C(=C\c1ccccc1F)NC(=O)c1ccccc1
-2.3	0	·	-3	i	·	·	·	-1.4	COc1ccc(S(=O)(=O)N(C)C[C@H]2OCCCC[C@@H](C)Oc3ccc(NC(=O)Cc4ccccc4)cc3C(=O)N([C@@H](C)CO)C[C@@H]2C)cc1
5.1	-36	3.0	-50	i	0.61	2	·	-2.3	O=C(Nc1nnc(-c2ccc(Cl)cc2)o1)C1=COCCO1
-6.8	-19	-1.2	-13	i	0.66	2	1%	-0.8	CC(CC(=O)c1cccs1)CC(=O)c1cccs1
·	·	0.2	·	·	0.75	-1	0%&-5%	·	Cc1ccc(S(=O)(=O)N2CCN(C(=O)c3cc4c(C)nn(-c5ccccc5C)c4s3)CC2)cc1
-2.2	-27	1.3	-36	i	0.67	1	-6%	-9.8	CCCN(CC1CC1)C(=O)COC(=O)c1oc2c(F)cccc2c1C
1.7	6	-0.5	3	i	·	·	-3%	-1.8	CCN1C(=O)[C@H]2[C@@H](c3ccc(C)cc3)N[C@]3(CCCN(CCC(C)C)C3=O)[C@H]2C1=O
-0.9	7	-2.2	9	i	0.71	10	-9%	0.7	COC(=O)Cn1c2ccc(OC)cc2c2nc(C)sc21
-5.5	-6	2.9	-4	i	0.73	0	16%	-0.3	COc1ccc(-n2c(Cc3cccn3C)nnc2SCC(=O)NCc2ccccc2Cl)cc1
0.2	7	-1.8	6	i	0.69	·	·	4.8	CN(C(=O)CSc1nncc2ccccc12)c1ccccc1
-0.3	7	-3.6	16	i	0.74	7	1%	-1.4	Cc1cccc(Nc2nc3ccccc3n3nnnc23)c1
-2.3&1.5	-14	-2.9	-33	i	·	-4	3%	17	O=C(C1=C[C@H](C2CCCCC2)C[C@H](OCCCCO)O1)N1CCN(Cc2ccccc2)CC1
2.9	-2	·	-4	i	·	·	·	8.2	COc1ccc(S(=O)(=O)Nc2ccc3c(c2)C(=O)N([C@H](C)CO)C[C@@H](C)[C@@H](CN(C)C(=O)NC2CCCCC2)OCCCC[C@@H](C)O3)cc1
4.7	-11	3.8	-3	i	0.67	28	-10%	12	CCOc1ccc(/C=C2\SC(=S)N(C(C(=O)O)c3ccccc3)C2=O)cc1OC (centres undefined)
2.5	4	-1.3	3	i	0.67	·	·	1.1	CN(C(=O)CSc1nc2ccccc2o1)C1CCS(=O)(=O)C1 (centres undefined)
-6.7	2	0.3	2	i	0.68	-6	·	-1.9	COc1ccccc1CNC(=O)C(C)n1nc(C)c2c(C)n(-c3ccccc3)nc2c1=O (centres undefined)
3.2	-3	·	-6	i	·	·	·	1.0	O=C(C[C@@H]1CC[C@@H]2[C@H](COC[C@H](O)CN2Cc2ccccc2)O1)N[C@H]1CCN(Cc2ccccc2)C1
0.9	-13	·	-17	i	·	·	·	0.1	O=C(NCC[C@H]1CC[C@H](NS(=O)(=O)c2ccc(F)cc2)[C@H](CO)O1)c1ccc2c(c1)OCO2
-1.2	3	-2.9	14	i	0.66	99*	2%	-3.6	CC(=O)Nc1ccc(NC(=O)CSc2ncc(C(=O)Nc3ccc(F)cc3)c(=O)n2C)cc1
2.2	·	-3.8	·	i	·	·	2%	·	CC(C)(C)OC(=O)N(CCc1ccccc1)Cc1cccc(OCc2cccc(NC(=O)C3CC3)c2)c1
·	·	-2.6	·	·	0.79	-8	1%	·	CCC(CC)NC(=O)Cc1ccccc1[N+](=O)[O-]
0.3	2	16	-7	i	0.69	-4	1%	2.1	COc1ccc(CCN(C)C(=O)CSc2ncnc3sccc23)cc1OC
0.1	-21	0.6	-27	i	0.67	-17	·	-2.8	COc1ccccc1C(=O)Nc1ccccc1C(=O)N1C(C)CCCC1C (centres undefined)
-1.0	2	3.2	-7	i	0.63	-15	8%	1.5	O=C(Nc1ccc(Cl)cc1)c1ccc(-c2ccccn2)s1
-1.7	5	·	16	i	·	·	·	0.6	Cc1noc(C)c1NC(=O)N(C)C[C@H]1Oc2ccc(NC(=O)CCN3CCOCC3)cc2C(=O)N([C@@H](C)CO)C[C@H]1C
-0.5	-6	1.6	-5	i	0.69	-1	3%	1.4	Cc1ccc(-c2nn(-c3ccccc3)cc2C(=O)N2CCN(C3CCS(=O)(=O)C3)CC2)cc1 (centres undefined)
2.2	8	-0.8	0	i	·	·	·	7.4	COc1ccc(-n2nnnc2C(c2ccccc2OC(F)(F)F)N2CCN(C/C=C/c3ccccc3)CC2)cc1 (centres undefined)
·	6	-0.2	0	i	0.7	-5	20%	8.2	CCCCN(CCCC)CC(O)Cn1c2ccccc2c(=O)c2ccccc21 (centres undefined)
-6.2	4	-6.0	8	i	0.59	·	8%	-3.2	CC(=O)c1ccc2c(c1)c(C#N)c1ccccc1[n+]2[O-]
·	·	2.8	·	·	0.66	-2	9%	·	Cc1ccccc1-c1cc(C(=O)Nc2sc(C(=O)OC(C)C)c(C)c2C#N)c2ccccc2n1
2.4	-3	-5.0	-3	i	0.69	81*	1%	0.8	COc1ccc(C2SCC(=O)N2Cc2ccccc2)cc1 (centres undefined)
1.9	8	-4.7	22	i	0.67	0	-1%	2.9	COc1ccccc1C(=O)NCC(=O)OCC(=O)Nc1ccc2[nH]c(=O)[nH]c2c1
0.9	0	2.8	-12	i	·	·	·	-3.9	CCCNC(=O)C1(C)CCCN(Cc2ccc(Oc3ccccc3)cc2)C1 (centres undefined)
-3.8	-13	-0.3	-11	i	0.73	5	·	10	CCC(NC(=O)CCc1c(C)c2cc3c(C)c(C)oc3cc2oc1=O)C(=O)N[C@@H](Cc1ccccc1)C(=O)O (some centres undefined)
·	·	-2.5	·	·	0.65	-3	-6%	·	CC(C)n1cc(NC(=O)C2CC(c3cccc(Br)c3)=NO2)cn1 (centres undefined)
-3.0	8	-6.8	-2	i	·	·	·	-3.7	CCOC1CCCc2oc(-c3ccsc3)c(-c3cnc(OC)nc3)c21 (centres undefined)
·	·	-1.6	·	·	·	16	?	·	COc1ccc(C2=CC3=C(Br)C(=O)C(C)(OC(=O)C4CCCC4)C(=O)C3=CO2)cc1 (centres undefined)
-0.3	8	1.2	4	i	0.66	1	1%	-1.4	COCCN(C(=O)CSc1ncccn1)c1c(N)n(Cc2ccccc2)c(=O)[nH]c1=O
15	8	3.4	11	i	0.68	·	-3%	-1.1	OCC1CCCCN1CCNCc1cn[nH]c1-c1cccc2ccccc12 (centres undefined)
33*	-21	4.9	-28	i	0.66	-2	-5%	-3.4	O=C(NN=Cc1ccc(F)c(F)c1)c1ccc(NS(=O)(=O)c2cccs2)cc1
-1.5	5	·	-4	i	·	·	·	3.6	C[C@@H]1CN([C@H](C)CO)C(=O)Cc2cc(NC(=O)Cc3cn(C)c4ccccc34)ccc2O[C@@H]1CN(C)S(C)(=O)=O

High-throughput results as filed in PubChem BioAssay.
